Rango dissoc inh = inhibitors of RanGTP-induced Rango-importin beta complex dissociation | O95149+P62826 | Biochemical FRET Rango-importin beta, RanGTP-induced dissociation | Potency, µM (series often up to 46.1 µM), for the others: at the highest dose activity change, negative = inhibition | hit rate 0.071% among 340,000; active means falling FRET ratio curve, often poorly fitted, with flat reads before Ran was added; inconclusive means other falling curves, or compound fluorescence or quenching; inactive means flat or rising ratio curve;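 note: potency is the fitted concentration of half-maximal effect; % of control where 0% means no effect; nearly all actives have a fitted effect of over 45% in size; -100% = wells without RanGTP and RCC1; the record marks most hits as doubtful in a second field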
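Rango/importin beta premix (0.1/0.25 uM final), PBS + 1 mM DTT + 0.02% Tween-20 + 0.1% BSA; cpd 5 min RT; FRET pre-read; + RanGTP-RCC1 (0.6 uM Ran, 2 mM GTP, 0.2 uM RCC1); 45 min RT; FRET post-read, ex 430, em 486/530 nm.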
miR-21 FLuc = raises the signal of a miR-21 reporter. HeLa miR-21 FLuc reporter, luciferase, 48 h. Potency, µM (top dose mostly 38.3 µM), inactives show at the top dose reporter change, positive = more light. 340,000 tested, under 10 active; active = well fitted rising curve with a large enough effect; inconclusive = small, poorly fitted or top-dose-only effect; inactive = no such curve, though single readings can be large or run the other way;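 note: % of control where 0% means no effect; miR-21 action dims this reporter so a rising signal means less miR-21 action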
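Compounds were titrated across several concentrations (up to approximately 40 uM) and incubated 48 hours with HeLa miR-21-FLuc reporter cells (miR-21 target sequence downstream of FLuc, endogenous miR-21). Readout was firefly luciferase luminescence after lytic detection reagent.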
Rango complex inh = Rango-importin beta binding inhibition. Q14974. Rango CFP/YFP FRET sensor + importin beta, 45 min. hit rate 0.031% among 340,000. Potency, µM (series often up to 92.2 µM), for the others: at the top dose inhibition of complex formation; active = rising FRET ratio curve, often small or poorly fitted; inconclusive = mostly compound fluorescence or quenching in the first reads; inactive = flat curves in all reads;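 note: potency is the fitted concentration of half-maximal effect; 0% = DMSO wells and 100% = buffer wells lacking importin beta; nearly all actives have a fitted effect of over 15% in size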
Target sequence (Q14974 whole entry, looked up): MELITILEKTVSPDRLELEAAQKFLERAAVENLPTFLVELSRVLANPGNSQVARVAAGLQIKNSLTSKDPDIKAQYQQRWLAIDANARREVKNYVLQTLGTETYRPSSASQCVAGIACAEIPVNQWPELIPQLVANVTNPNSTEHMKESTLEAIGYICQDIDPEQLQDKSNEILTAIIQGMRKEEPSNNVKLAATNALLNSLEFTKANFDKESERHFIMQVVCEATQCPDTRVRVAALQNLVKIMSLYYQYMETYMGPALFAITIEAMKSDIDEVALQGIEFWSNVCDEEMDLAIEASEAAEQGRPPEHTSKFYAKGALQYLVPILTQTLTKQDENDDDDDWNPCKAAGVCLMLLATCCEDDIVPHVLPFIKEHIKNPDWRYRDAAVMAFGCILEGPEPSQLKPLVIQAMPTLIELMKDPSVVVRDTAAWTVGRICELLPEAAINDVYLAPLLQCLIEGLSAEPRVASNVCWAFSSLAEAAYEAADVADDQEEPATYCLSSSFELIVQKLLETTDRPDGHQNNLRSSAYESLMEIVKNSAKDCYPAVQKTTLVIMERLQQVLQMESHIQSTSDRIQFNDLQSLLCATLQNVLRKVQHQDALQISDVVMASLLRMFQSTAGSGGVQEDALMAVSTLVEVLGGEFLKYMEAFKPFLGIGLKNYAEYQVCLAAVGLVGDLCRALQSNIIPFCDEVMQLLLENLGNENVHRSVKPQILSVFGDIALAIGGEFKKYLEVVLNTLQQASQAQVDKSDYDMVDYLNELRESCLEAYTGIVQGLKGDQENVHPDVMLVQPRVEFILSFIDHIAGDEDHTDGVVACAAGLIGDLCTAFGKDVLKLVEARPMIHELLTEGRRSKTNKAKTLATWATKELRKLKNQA
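FRET biosensor (snurportin 1 IBB flanked by EYFP and cerulean), 50 nM, with compound 5 min, then 0.125 microM importin beta in PBS, 1 mM DTT, 0.02% Tween-20, 0.1% BSA. CFP/YFP ratio read after 45 min at room temperature; pre-read flags interference.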
GLA inh pH 4.5 = inhibitors of human alpha-galactosidase A at pH 4.5; P06280; purified enzyme, 4-MU-alpha-Gal fluorescence, pH 4.5; activity change, negative = inhibition, % at 105 µM; 230,000 tested, under 10 active; inconclusive = small, poorly fitted or top-dose-only inhibition, or a rising curve; inactive = flat fitted curve, though single readings scatter; no compound was filed as active;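 note: 0% = full activity with enzyme and -100% = basal without enzyme; dose as in the result columns while the protocol names 77 µM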
Numbers without * were called inactive; ? = inconclusive; · = no result given; & = joins results of further samples; [ ] = dose if it differs, or a comment.

Rango complex inh | GLA inh pH 4.5 | Rango dissoc inh | SMILES | miR-21 FLuc
5.8% | · | 9% | Cc1cc2cccc(C)c2nc1SCC(=O)NC1CCCCC1 | 0%
-0.6% | 3 | 2% | CN1CCN(S(=O)(=O)c2ccc(N(C)Cc3cccs3)nc2)CC1 | 4%
-1.9% | · | 12% | Cc1noc(C)c1C(=O)OCC(=O)Nc1ccc(S(N)(=O)=O)cc1 | ·
-2.2% | -9 | 3% | CCCCCCCCC(=O)NC(NC(=S)N1CCOCC1)C(Cl)(Cl)Cl (stereo not drawn) | 23%
-0.1% | 5 | -13% | O=C1C2CCCN2C(=O)N1CCN1CCN(CCO)CC1 (stereo not drawn) | -2%
-1.1% | 1 | -3% | CCCCOC(=O)c1ccc(NC(=O)C(=O)NCc2cccnc2)cc1 | 3%
2.8% | -15&0&-25 | -22% | CC(C)COCC(CN(Cc1ccccc1)c1ccccc1)N1CCCC1 (stereo not drawn) | 17%
-2.1% | 3 | -10% | Nc1c(-c2ccc(Cl)cc2)cnc2ncnn12 | -15%
0.3% | · | 22% | COc1cc(/C=C/[N+](=O)[O-])ccc1OC(=O)/C=C/c1ccc(F)cc1 | 2%
? | 0 | ? | Cc1cc(C)c2c(N)c(C(=O)N/N=C/c3ccccc3)sc2n1 | -54%
0.6% | -8 | -6% | Cc1cc(NC(=O)COC(=O)CSCc2ccc(Cl)c(Cl)c2)no1 | 1%
1.7% | 6 | 17% | CC(c1ccc(Br)cc1)N1CC23C=CC(O2)C(C(=O)O)C3C1=O (stereo not drawn) | 3%
3.0% | 9 | 3% | Nc1ccc(-n2nnnc2-c2ccco2)cc1 | 2%
-0.1% | · | 3% | Cc1cc(C)c(S(=O)(=O)c2cccc(Br)c2C)c(Cl)n1 | -2%
? | 0 | 25% | C=CCNC(=O)c1ccccc1NS(=O)(=O)c1ccc(SC)cc1 | -4%
-1.4% | -9 | -11% | Cc1ccc(NC(=O)CS(=O)Cc2nc(-c3ccc(C)cc3)oc2C)cc1 (stereo not drawn) | -4%
3.5% | 0 | 13% | CC1CN(c2nc3ccccn3c(=O)c2C=O)CC(C)O1 (stereo not drawn) | -3%
2.9% | · | 10% | CCc1cc(C(=O)N2CCCC(C(=O)c3ccc(C(F)(F)F)cc3)C2)n(C)n1 (stereo not drawn) | 6%
-1.8% | · | -11% | CCOc1ccc2oc(C(=O)N3CCN(c4ccccn4)CC3)c(C)c2c1 | -2%
3.0% | 12 | 4% | CCc1ccc(/C=C(/C#N)C(N)=S)s1 | -4%
-7.1% | 1 | -9% | CCN(CC)C(=S)SC1CCCCN(C(=O)c2ccc(F)cc2)C1=O (stereo not drawn) | -2%
1.2% | -1 | -8% | CCOC(=O)Cc1csc(NC(=O)COc2ccccc2OCC)n1 | -1%
-3.0% | -7 | -2% | COc1cccc2c1OC1(C)CC2NC(=O)N1 (stereo not drawn) | 2%
3.3% | -20 | 4% | COc1cccc(Cn2cnc3c(NS(=O)(=O)c4cc(Cl)ccc4Cl)c(C)c(C)cc32)c1 | 11%
-2.5% | · | -1% | NCCN1C(=O)S/C(=C\c2ccc3c(c2)OCO3)C1=O | 20%
-3.6% | · | 4% | O=C(CN1C(=O)c2ccccc2C1=O)Nc1cccc(O)c1 | 2%
-1.0% | 4 | 10% | O=C(Cn1cnc2nc3n(c2c1=O)CCC3)NCc1ccccc1 | -2%
2.0% | · | 1% | CCOc1ccc(S(=O)(=O)NCCC(=O)NCc2ccc(OC)c(OC)c2)cc1 | ·
1.8% | 1 | -22% | Cc1[nH]c2ccccc2c1CC(=O)O | -2%
-3.1% | -7 | -14% | Cc1ccc2cc(C(c3nnnn3C3CCCC3)N3CCOCC3)c(=O)[nH]c2c1C (stereo not drawn) | 2%
3.8% | -3 | -10% | COc1ccccc1N1CCN(CCCC(=O)c2ccc(F)cc2)CC1 | -9%
-0.6% | -2 | 3% | O=C(CCCN1C(=O)/C(=C/c2cccs2)SC1=S)NNC(=O)c1ccccc1O | -2%
0.5% | · | -11% | CCOC(=O)N1CCN(C(=O)COC(=O)c2ccc(Cl)nc2)CC1 | ·
-2.5% | 2 | -9% | CCOC(=O)C1=C(C)N(C)C(C)=C(C(=O)OCC)C1c1ccc(Cl)cc1 | 3%
-0.9% | · | 12% | CC1=C(C(=O)OCc2ccccc2)C(c2ccc(Br)cc2)NC(=O)N1CCCC(=O)O (stereo not drawn) | -17%
0.1% | -5 | 10% | CCn1ncc(Br)c1C(=O)Nc1ccn(C23CC4CC(CC(C4)C2)C3)n1 | -24%
-0.9% | · | -4% | CCC(C)c1ccccc1OCCCN(C)Cc1ccccc1 (stereo not drawn) | 1%
-4.5% | -27 | 10% | COc1ccc(OC)c(/C=N/NC(=O)c2[nH]nc3c2CCc2ccccc2-3)c1 | -7%
2.0% | 14 | 0% | CCOC(=O)c1snc2c(=O)[nH]cnc12 | -1%
7.4% | 8 | -16% | CCN(CC)S(=O)(=O)c1cccc(C(=O)NCCCN2CCOCC2)c1 | -6%
1.3% | 7 | 4% | Cc1ccn2c(CNC(C)CCn3cccn3)c(C(=O)N3CCCCCC3)nc2c1 (stereo not drawn) | -2%
0.3% | · | -11% | CCN(C[C@H]1N[C@@](CC)(C(=O)OC)[C@H]2C(=O)N(C)C(=O)[C@@H]12)C(=O)c1ccc(C(C)(C)C)cc1 | ·
? | · | ? | CC(=O)Nc1nn(C)c2nc3ccc(C)cc3cc12 | 0%
0.2% | · | 6% | COc1cc(OC)cc(C(=O)NC(C(=O)OCn2nnc3ccccc3c2=O)C(C)C)c1 (stereo not drawn) | ·
-2.0% | 1 | 13% | COc1ccccc1NS(=O)(=O)c1cc(NC(=O)c2ccco2)ccc1N1CCOCC1 | -5%
0.5% | · | -16% | CCc1nnc(NC(=O)c2nc(S(=O)(=O)Cc3ccc(C)cc3)ncc2Cl)s1 | ?
-0.6% | · | -4% | CCn1cc(C(=O)NCCc2ccc(OC)c(OC)c2)c(=O)c2cc(S(=O)(=O)N3CCOCC3)ccc21 | -13%&-15%
0.4% | · | -15% | O=C(COc1ccc(Br)cc1)Nc1ccc(C(=O)Nc2ccccc2C(=O)O)cc1 | 1%
-0.7% | 2 | 3% | CC(NC(=O)c1ccc(CS(=O)(=O)Cc2ccccc2F)o1)c1ccc2c(c1)OCCO2 (stereo not drawn) | -1%
? | · | -7% | COc1cccc(CN(C)C(=O)c2ccc(NS(=O)(=O)c3ccc4[nH]c(=O)[nH]c4c3)cc2)c1OC | 0%
3.0% | · | -3% | Cc1ccc2c(c1)N(CC(=O)N1CCCC(C)C1)C(=O)CO2 (stereo not drawn) | 0%
1.1% | -5 | 2% | CCC(NC(=O)Nc1cc(OC)c(OC)c(OC)c1)(C(F)(F)F)C(F)(F)F | -3%
2.4% | · | -6% | Cc1c(C(=O)O)cccc1[N+](=O)[O-] | ·
-2.2% | 3 | -5% | COC(=O)c1ccc(CSc2ccc3nnc(-c4cccc(F)c4)n3n2)o1 | -8%
-4.7% | · | ? | CC[C@]12c3[nH]c4ccc(Cl)cc4c3CCN1C(=O)[C@@H](CC(=O)NCc1ccco1)C[C@@H]2C(=O)N1CCN(C(=O)C2CC2)CC1 | ·
-0.4% | 5 | 6% | CN1CCN(NC(=O)c2ccc(Cl)c([N+](=O)[O-])c2)CC1 | -2%
0.5% | · | 0% | Cc1ccc(/C=C2\SC(=S)N(CCC(=O)NNC(=O)c3ccccc3O)C2=O)cc1 | -3%
-3.2% | -8 | 1% | COc1ccc(NC(=S)N(Cc2ccccn2)Cc2ccccc2Cl)cc1 | -5%
2.2% | 1 | 1% | N#CC1=C(N)NC(SCc2ccc(Cl)cc2)=C(C#N)C12CCCCC2 | 29%
? | ? | 9% | CCOC(=O)N1CCN(C(=O)COc2ccc3c(c2)C(=O)CC(C)(C)O3)CC1 | 1%

Entries shown so far that contain a thiophene ring, fused or not, in the order listed:
Rango complex inh | GLA inh pH 4.5 | Rango dissoc inh | SMILES | miR-21 FLuc
-0.6% | 3 | 2% | CN1CCN(S(=O)(=O)c2ccc(N(C)Cc3cccs3)nc2)CC1 | 4%
? | 0 | ? | Cc1cc(C)c2c(N)c(C(=O)N/N=C/c3ccccc3)sc2n1 | -54%
3.0% | 12 | 4% | CCc1ccc(/C=C(/C#N)C(N)=S)s1 | -4%
-0.6% | -2 | 3% | O=C(CCCN1C(=O)/C(=C/c2cccs2)SC1=S)NNC(=O)c1ccccc1O | -2%

Further entries follow:
Rango complex inh | GLA inh pH 4.5 | Rango dissoc inh | SMILES | miR-21 FLuc
-0.8% | -1 | -2% | O=C(COc1cccc2c1CCN(Cc1ccc(Br)cc1)C2=O)N1CCOCC1 | 13%
1.1% | 4 | 3% | Cc1ccc(O)c(-n2nc3ccccc3n2)c1 | -64%
-4.2% | 3 | 0% | COCCCNC(=O)c1ccc(CS(=O)(=O)Cc2cccc(C)c2)o1 | -1%
5.6% | -5 | 0% | Fc1ccc(-c2cc(C(F)(F)F)n3ncnc3n2)cc1 | -1%
? | 2 | -7% | COc1ccc(CCNC(=O)/C(C#N)=C/c2cccc(OCc3ccccc3)c2)cc1OC | -14%
-0.6% | · | -14% | C[C@H](CO)N1C[C@H](C)[C@@H](CN(C)C(=O)Nc2ccc(C(F)(F)F)cc2)Oc2ccc(NC(=O)C3CCCCC3)cc2C1=O | ·
-1.3% | -7 | 9% | NS(=O)(=O)c1ccc(CCNC(=O)CSc2nc3ccsc3c(=O)n2CCCCC(=O)O)cc1 | 3%
? | -2 | ? | NC(=O)c1ccsc1NC(=O)c1ccco1 | -39%
-0.3% | 5 | 19% | Cc1c(Cl)c([N+](=O)[O-])nn1CCCC(=O)O | -6%
2.4% | 2 | -12% | O=C(/C=C/c1ccc(Cl)cc1)NCCSc1ccccc1 | -16%
-3.2% | · | 1% | O=C(NCc1ccc(F)cc1)c1cnc(Cl)c(Cl)c1 | -4%
? | -11 | 14% | C/C(=N\Nc1ccc(C(=O)O)cc1)c1ccc(Br)cc1 | 2%
0.0% | -15 | -1% | Cc1ccc2nc(SCC(=O)c3ccc(O)cc3O)[nH]c2c1 | -50%
0.0% | · | 10% | CCCN(CC(=O)Nc1ccccc1C)C(=O)C1CC(=O)N(c2ccc(CC)cc2)C1 (stereo not drawn) | ·
? | · | -6% | CC(OC(=O)c1ccc(Cl)nc1)C(=O)Nc1ccc(S(=O)(=O)N2CCCC2)cc1 (stereo not drawn) | ·
-2.0% | 0 | -11% | C=CCN1C(=O)/C(=c2\sc3nc(=O)c(Cc4ccccc4)nn3c2=O)c2ccccc21 | 2%
-0.1% | 2 | -4% | COC(=O)Nc1ccc(SCC(=O)c2ccc(Cl)cc2)cc1 | -21%
-2.8% | · | -22% | CCOc1ccc2nc(SCC(=O)N(CC(C)C)c3c(N)n(Cc4ccccc4)c(=O)[nH]c3=O)[nH]c2c1 | ·
8.5% | 2 | 17% | CCOc1ccccc1NC(=O)Cn1c(=O)c2ccccc2n(CC)c1=O | -14%
-3.0% | -3 | -8% | COc1cc(NC(=O)CCCn2c(=S)[nH]c3ccccc3c2=O)cc(OC)c1OC | 3%
-0.1% | · | 15% | O=C(CCCc1ccccn1)c1ccc(-c2ccccc2)cc1 | ·
-0.8% | -23 | -6% | Cc1ccc(S(=O)(=O)N2CCCC2)cc1S(=O)(=O)N1CCCC1 | -6%
-1.7% | · | -6% | C[C@@H]1CN([C@@H](C)CO)C(=O)c2cccc(NS(C)(=O)=O)c2O[C@H]1CN(C)Cc1ccc(Oc2ccccc2)cc1 | ·
1.7% | 6 | 7% | CC(=O)NC1CC2CCCC(C1)N2CC(=O)N1CCCc2ccccc21 (stereo not drawn) | -5%
-0.6% | · | 1% | CN(C(=O)CSc1ncccn1)C1CCS(=O)(=O)C1 (stereo not drawn) | ·
4.8% | -5 | -3% | CN1CCC(Oc2ccccc2Sc2ccccc2)CC1 | 9%
1.3% | · | 5% | Cc1cc(C(=O)OCC(=O)Nc2ccccc2C)c(C)o1 | ·
-2.2% | -10[21.1 µM] | 17% | CC(=O)Nc1nc2ccccc2n1Cc1ccc(C)cc1 | 21%
0.5% | 3 | -11% | COC(=O)c1ccc(C)c(-n2c(C)cc(C=O)c2C)c1 | 6%
0.6% | -4 | 7% | Cc1cc(C)c(NC(=O)CN(C2CCCCC2)C2CCCCC2)c(C)c1 | 1%

Bioassay records deposited in PubChem by National Center for Advancing Translational Sciences (NCATS).

Not all compounds are listed; count on the stated rates, not on these rows.
